Bioassay records from PubChem BioAssay.
NS1 inh: inhibitors of influenza NS1 protein function; actives 0.4% (n = 270,000); S. cerevisiae slowed by influenza A NS1, growth recovery by OD600; AID 2326; Potency, µM (titrated, usually from 46.1 µM), inactives show at the highest dose activity, positive = more growth; note: actives are rising curves; nearly all actives have a fitted effect of over 50% in size
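Compounds were scored for reversing the slow growth caused by influenza A NS1 in S. cerevisiae, measured by optical density at 600 nm. Assay medium contained 2% galactose at pH 6.0; NS1-free yeast of the same strain were the positive control.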
Cruzain inh noDet: blocks cruzain activity in detergent-free assay. P25779. purified cruzain, Z-FR-AMC fluorescence, no detergent. Potency, µM, for inactives: max response, negative = inhibition, most hits filed as inhibitors. actives 2.3% (n = 200,000); active = well fitted curve in the direction sought with a large enough effect; inconclusive = small, poorly fitted or top-dose-only effect, or another doubt; inactive = no such curve, though single readings can be large; an effect the other way counts as inactive or inconclusive;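 note: plate controls were enzyme without inhibitor for no effect and buffer without enzyme for full effect; nearly all actives have a fitted effect of over 40% in size; top concentration of the series not given in the record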
Target sequence (P25779 123-467 limits assumed): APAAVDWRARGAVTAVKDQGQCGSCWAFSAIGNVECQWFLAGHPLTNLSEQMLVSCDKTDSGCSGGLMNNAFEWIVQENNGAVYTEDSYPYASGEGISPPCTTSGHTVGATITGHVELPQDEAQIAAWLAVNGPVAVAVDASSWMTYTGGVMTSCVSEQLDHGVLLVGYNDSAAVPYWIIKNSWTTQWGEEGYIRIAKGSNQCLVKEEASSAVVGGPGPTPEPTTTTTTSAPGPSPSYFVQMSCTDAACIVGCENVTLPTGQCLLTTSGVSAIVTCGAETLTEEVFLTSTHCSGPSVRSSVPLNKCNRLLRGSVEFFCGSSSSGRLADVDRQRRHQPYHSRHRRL
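Detergent-free condition (0.00005% Triton X-100) in acetate buffer pH 5.5 with DTT. 1.5 nM enzyme and compound were pre-mixed 15 min, then 2 uM Z-FR-AMC substrate added; reaction progress from fluorescence change between first and third reads (60 s).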
LASV entry inh: blocks Lassa virus binding to or entry into cells. actives 1.2% (n = 300,000). AID 540256. Lassa virus pseudotype entry inhibition, cell reporter; control for the full effect not named in the record. Potency, µM (top dose mostly 37.9 µM), inactives show at the highest dose activity change, negative = inhibition, usual class: inhibitors; active means well fitted inhibition curve with a large enough effect; inconclusive means small, poorly fitted or top-dose-only effect, or effect the other way; inactive means flat fitted curve, though single readings scatter; tested in HEK293 cells; note: % is set by controls: 0 for no effect and ±100 for the full control effect; nearly all actives have a fitted effect of over 50% in size; luciferase read-out
Cruzain inh Det: blocks cruzain activity in presence of Triton detergent | Potency, µM, for the others: max response, negative = inhibition, hits mostly inhibitors | purified cruzain, Z-FR-AMC fluorescence, 0.01% Triton | actives 0.43% (n = 200,000) | P25779; active = well fitted curve in the direction sought with a large enough effect; inconclusive = small, poorly fitted or top-dose-only effect, or another doubt; inactive = no such curve, though single readings can be large; an effect the other way counts as inactive or inconclusive;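 note: plate controls were neutral wells for no effect and buffer without enzyme for full effect; nearly all actives have a fitted effect of over 40% in size; top concentration of the series not given in the record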
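Enzyme 1.5 nM, Z-FR-AMC 2 uM, NaOAc 100 mM pH 5.5, DTT 5 mM, Triton X-100 0.01%; 15 min RT compound preincubation; kinetic ex360/em450, 60 s delta.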
Marburg entry inh: blocks Marburg virus binding to or entry into cells. Marburg virus pseudotyped entry inhibition, cell reporter; control for the full effect not named in the record; about a third of the inactives were read at about 46 µM. Potency, µM (doses to about 37.8 µM), for inactives: top-dose activity change, negative = inhibition, hits mostly inhibitors. actives 1.8% (n = 300,000); active = well fitted inhibition curve with a large enough effect; inconclusive = small, poorly fitted or top-dose-only effect, or effect the other way; inactive = flat fitted curve, though single readings scatter; tested in HEK293 cells; about a fifth of its hits are not listed in these tables; note: % is set by controls: 0 for no effect and ±100 for the full control effect; luciferase read-out
RE007 growth inh: less growth of the S. pombe RE007 Vpr strain; S. pombe RE007 Vpr strain, BacTiter-Glo ATP luminescence, 24 h; control for the full effect not named in the record; Potency, µM (series often up to 92.2 µM), for inactives: top-dose activity change, negative = less growth; actives 0.21% (n = 360,000); active = well fitted falling curve with a large enough effect; inconclusive = small, poorly fitted or top-dose-only effect; inactive = no such curve, though single readings can be large or run the other way;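 note: % is set by controls: 0 for no effect and ±100 for the full control effect; nearly all actives have a fitted effect of over 50% in size; the assay follows cell death caused by Vpr and the record does not say whether a fall means rescue or toxicity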
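Fission yeast RE007 carrying one integrated HIV-1 vpr copy, seeded at OD 0.01 in PMG+AL medium with 23 nL pinned compound. Grown 24 h at 30 degrees; viability read by BacTiter-Glo luminescence after 5 min.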
StopGo reporter: lowers the luciferase signal of an FMDV 2A StopGo reporter. Potency, µM (series often up to 57.9 µM), for inactives: at the highest dose signal change, negative = less light. actives 1.2% (n = 410,000). AID 1159524. human cells with a luciferase reporter of 2A StopGo recoding; control for the full effect not named in the record; active = well fitted falling curve with a large enough effect; inconclusive = small, poorly fitted or top-dose-only effect; inactive = no such curve, though single readings can be large or run the other way; tested in HEK293T cells; note: % is set by controls: 0 for no effect and ±100 for the full control effect; nearly all actives have a fitted effect of over 45% in size; luciferase light after 4 h
SARS PLP yeast: inhibitors of SARS-CoV papain-like protease in yeast | Potency, µM (doses to about 32.9 µM), without a hit: at the highest dose activity, positive = growth rescue | S. cerevisiae expressing SARS-CoV PLpro, growth rescue; control for the full effect not named in the record | AID 485353 | actives 0.19% (n = 330,000); note: 0% is about no effect; nearly all actives have a fitted effect of over 55% in size; growth read by luminescence after 48 h
* = called active by the depositor; u = inconclusive; x = no result given; [ ] = dose if it differs, or a comment. Unless noted, calls come from the whole dose curve; as a rule, active means well fitted rising curve with a large enough effect; inconclusive means small, poorly fitted or top-dose-only effect; inactive means no such curve, though single readings can be large or run the other way. Potency is the fitted concentration of half-maximal effect. Compounds were not picked by outcome; overall some 4.6% were active at least once.

Screens in order – LASV entry inh	Cruzain inh Det	NS1 inh	Marburg entry inh	RE007 growth inh	SARS PLP yeast	Cruzain inh noDet	StopGo reporter
CC(=O)Nc1ccc(C)c([N+](=O)[O-])c1
 : -16%	x	0%	-1%	-1%	-1%	x	22%
CCOC(=O)c1ccc(NC(=O)c2ccccc2)cc1
 : 11%	-5.4%	-73%	u	7%	-7%	9%	x
Cc1cc(C)cc(NC(=O)c2cc(S(=O)(=O)N3CCC(C)CC3)cn2C)c1
 : 7%[46.1 µM]	-9.1%	x	x	x	x	-8%	-9%
O=Cc1c(-c2ccccc2)cc2oc3ccccc3cc1-2
 : x	x	0%	x	1%	0%	x	-5%
Cc1ccc(SC(C)C(=O)Nc2ccc(S(=O)(=O)N3CCOCC3)cc2)cc1 (stereo not drawn)
 : -13%	-1.6%	-6%	u	11%	17%	6%	-12%
O=C(Oc1ccccc1Cl)c1cc(-c2ccc3c(c2)OCCO3)on1
 : 0%[46.1 µM]	-7.4%	x	-20%[46.1 µM]	x	x	6%	-4%
Cn1c(C(C#N)C(=O)c2ccco2)nc2ccccc21 (stereo not drawn)
 : 5%	-1.9%	-57%	u	u	2%	-8%	-16%
CC(Cc1ccccc1)NC(=O)c1cc([N+](=O)[O-])ccc1Cl (stereo not drawn)
 : x	x	-1%	x	-3%	0%	x	-21%
CCN(CC)C(=O)CP(=O)(c1ccccc1)c1ccccc1
 : 2%	6.2%	6%	-1%	-4%	2%	2%	-8%
COc1ccc(S(N)(=O)=O)cc1-c1nnc2c3ccccc3c(C)nn12
 : x	x	-11%	x	6%	-3%	x	-5%
Cc1c(C(=O)Nc2ccccc2)sc2nc(-c3cc4cc(Cl)ccc4oc3=O)[nH]c(=O)c12
 : 17%[46.1 µM]	-11%	x	x	x	x	4%	-15%
O=C(NCc1cccc(F)c1)c1noc2c1CCCC2
 : x	-1.2%	-2%	x	u	-4%	9%	10%
FC(F)(F)c1cc(-c2ccco2)nc(NCc2cccnc2)n1
 : -29%	-6.0%	-54%	-3%	3%	-2%	4%	0%
Cc1nccc(-c2ccc3c(c2)OCO3)n1
 : 3%	x	x	12%[46.1 µM]	30%	-3%	x	0%
O=C(CSc1nnc2ccccn12)NC(=O)Cc1ccccc1
 : 2%	x	3%	-2%[46.1 µM]	2%	-10%	x	6%
Clc1ccc(Sc2cc(N3CCOCC3)nc(-c3ccccc3)n2)cc1
 : 19%	0.2%	-10%	-11%	u	6%	-18%	0%
Cn1ccnc1SCc1cccc([N+](=O)[O-])c1
 : -2%[46.1 µM]	x	-22%	15%[46.1 µM]	-11%	-2%	x	1%
CCOC(=O)c1c(NC(=O)CSc2nnc(CNc3ccc(C)cc3C)o2)sc(C)c1C
 : -26%	-8.6%	0%	u	1%	-5%	3%	-23%
CC(C)n1c(SCC(N)=O)nc2c1c(=O)[nH]c(=O)n2C
 : 15%	3.1%	-9%	22%	-15%	-2%	-6%	9%
CC(C)NC(=O)CN1CCN(C(=O)c2ccc3oc(CCCc4ccccc4)nc3c2)CC1
 : 11%	x	-12%	-16%	7%	-1%	x	7%

Quoted from the listing.
Cruzain inh noDet, CCOC(=O)c1c(NC(=O)CSc2nnc(CNc3ccc(C)cc3C)o2)sc(C)c1C : 3%
SARS PLP yeast, Cc1ccc(SC(C)C(=O)Nc2ccc(S(=O)(=O)N3CCOCC3)cc2)cc1 (stereo not drawn) : 17%
StopGo reporter, O=Cc1c(-c2ccccc2)cc2oc3ccccc3cc1-2 : -5%

Going on with the list.
Screens in order – LASV entry inh	Cruzain inh Det	NS1 inh	Marburg entry inh	RE007 growth inh	SARS PLP yeast	Cruzain inh noDet	StopGo reporter
Cc1c(C(=O)N/N=C/c2cccnc2)sc(=S)n1C
 : u	-10%	10%	u	-13%	4%	0%	-2%
Clc1ccc(SCc2cn3ccsc3n2)cc1
 : u	-3.7%	-104%	u	-28%	-6%	-4%	4%
CCS(=O)(=O)N1CCC(C(=O)NCc2ccc(OC)cc2OC)CC1
 : 6%	x	x	7%	6%	-7%	x	-8%
COc1cc(NC(=O)COC(=O)c2ccc3ccccc3n2)cc(OC)c1
 : 15%	x	x	17%	15%	1%	x	-14%
COc1ccccc1NNC(=O)c1cc(C(C)(C)C)nn1Cc1ccccc1
 : u	x	-1%	u	18%	0%	x	-9%
O=C(CCc1nnc(CCC2CCCCC2)o1)NCc1ccon1
 : x	x	4%	x	3%	-1%	x	37%[activator]
O=[N+]([O-])c1cc([N+](=O)[O-])c(Oc2cc(Cl)ccc2Cl)cc1NC1CCCCCCC1
 : x	x	15%	x	-4%	1%	x	22%
O=C(NCCc1ccccc1)C1CCCN1C(=O)Nc1ccccc1 (stereo not drawn)
 : x	x	10%	x	3%	1%	x	7%
CN(C(=O)c1cc2sccc2n1C)C1CCCCC1
 : 0%	4.7%	-12%	1%	-10%	8%	-3%	22%
O=c1ccc2cc(S(=O)(=O)Nc3ccc(F)c(Cl)c3)ccc2[nH]1
 : -26%[46.1 µM]	-1.9%	x	x	x	x	-23%	58%[activator]
Cc1cc(O)ccc1Nc1nc(-c2sc(N)nc2C)cs1
 : 1%	-20%	11µM*	11%	-9%	2%	u	-25%
O=C(NCc1ccccc1C(F)(F)F)C1CCC(=O)N(C2CCCCCC2)C1 (stereo not drawn)
 : 26%[46.1 µM]	x	-10%	u	-3%	7%	x	-2%
CC(=O)Nc1ccc(S(=O)(=O)N2CCC(C(=O)O)(c3ccccc3)CC2)cc1
 : -1%[46.1 µM]	x	11%	-3%[46.1 µM]	-3%	5%	x	-10%
CC(=O)N1CCN(C(=O)Cn2c(=O)oc3ccccc32)CC1
 : 1%	6.3%	-1%	-6%	30%	-4%	12%	-13%
Cc1cc(C)c2nc(NC(=O)c3ccc(S(=O)(=O)N4CCc5ccccc54)cc3)sc2c1
 : 3%[46.1 µM]	-0.6%	x	x	x	x	-3%	u
CC(CCc1ccccc1)NC(=O)CSc1ccccn1 (stereo not drawn)
 : x	x	-2%	x	1%	-4%	x	-10%
Cc1ccn2c(-c3n[nH]c(=S)n3C)c(C)nc2c1
 : 3%	2.4%	16%	15%	-2%	-7%	6%	-6%
CN(CC(=O)O)S(=O)(=O)c1cc(Cl)ccc1Cl
 : 3%	3.8%	0%	16%	9%	12%	5%	x
c1ccc(-c2ccnc3nc(-n4cccc4)nn23)cc1
 : -10%	1.5%	8%	u	0%	7%	1%	5%
Cc1nnc(SCC(=O)Nc2nc3ccccc3s2)n(N)c1=O
 : 5%	-0.7%	15%	12%	-14%	2%	-9%	-6%
COc1ccc(-c2nnc(SCC(=O)N3CCOCC3)o2)cc1
 : -12%	9.9%	-5%	-5%	12%	8%	2%	85%[activator]
Cc1nn(-c2ccccc2)c2sc(C(=O)n3cccn3)cc12
 : 3%	-0.8%	-12%	-9%	-16%	8%	-24%	39%[activator]
CCc1c(O)cc(=O)n(-c2ccccc2)c1-c1ccccc1
 : -4%	-5.8%	24%	-10%	-5%	10%	5%	-14%
CC(Oc1ccc(Br)cc1)C(=O)Nc1nc(-c2ccccn2)cs1 (stereo not drawn)
 : u	x	-105%	u	u	-2%	x	40µM*
COC(=O)c1cc(CNC(=O)c2ccccc2Cl)ccc1OC
 : 12%	2.9%	22%	3%[46.1 µM]	-10%	21%	-1%	-8%
O=C(Cn1cnc(S(=O)(=O)N2CCOCC2)c1)Nc1ccc(OC(F)(F)F)cc1
 : x	x	-3%	x	-9%	-1%	x	-11%
COc1cc(NC(=O)C(=O)N2CCN(C)CC2)c(OC)cc1Cl
 : 27%	x	-4%	-4%	-8%	0%	x	9%
CN(c1nnc(NC(=O)Nc2ccc(Br)cc2)s1)C1CCCCC1
 : -5%[46.1 µM]	-2.9%	x	-11%[46.1 µM]	x	x	4%	8%
COC(=O)c1c(NC(=O)CN2CCCc3ccccc32)sc(C)c1C
 : -8%	-2.8%	4%	-13%	-5%	-14%	u	14%
c1ccc(CNc2nc(NCc3ccco3)nc(N3CCOCC3)n2)cc1
 : -13%	x	-8%	u	-1%	-1%	x	-27%
COc1ccccc1CNC(=O)C(=O)NCC1OCCN1C(=O)c1ccc(Cl)cc1 (stereo not drawn)
 : 2%	x	u	-1%[46.1 µM]	4%	0%	x	-2%
CCN(CC)CCCn1c2c(c(SCC(=O)N3CCCc4ccccc43)nc1=O)CCC2
 : 7%	x	x	u	-8%	6%	x	-6%
COc1ccc(C(=O)Nc2sc(C)c(C)c2CN2CC(C)OC(C)C2)cc1 (stereo not drawn)
 : u	-2.4%	0%	u	-2%	6%	-8%	50%[activator]
CCOc1ccc(S(=O)(=O)NCc2ccco2)cc1
 : 0%	1.7%	3%	-21%	-2%	x	5%	55%[activator]
C/C(N)=C(\C#N)C(=O)NCc1ccccn1
 : 11%	5.3%	-3%	4%[46.1 µM]	9%	7%	-3%	3%
COCCSc1nnc(-c2cccc(C#N)c2)n1C
 : -21%[14.3 µM]	2.5%	-2%	5%	8%	3%	-3%	22%
COC(=O)c1cccc(Nc2c(-c3cc(Br)ccc3O)nc3nc[nH]n23)c1
 : -2%[46.1 µM]	1.7%	x	x	x	x	-4%	-4%
CN(C)S(=O)(=O)N1CCC(Oc2ccc(C(=O)N3C[C@H]4CC[C@H]3C4)cc2)CC1
 : u	x	6%	u	3%	5%	x	u
CCCC(=O)NC1CC(=O)N(c2ccc3c(c2)OCCO3)C1 (stereo not drawn)
 : 4%[46.1 µM]	0.3%	x	x	x	x	15%	0%
